Screening data (PubChem)
Rce1 inhib = blocks yeast Ras-converting enzyme; Q03530; yeast membranes, quenched prenylated peptide cleavage fluorescence; calls only; 290,000 tested, 0.27% active;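 active = fall in fluorescence gain of 50% or more versus controls, with final raw signal at or below 3038400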;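 also: plate controls were neutral control wells for no effect and wells lacking membranes for full effect; tested at 10 µM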
Target sequence (Q03530 whole entry, looked up): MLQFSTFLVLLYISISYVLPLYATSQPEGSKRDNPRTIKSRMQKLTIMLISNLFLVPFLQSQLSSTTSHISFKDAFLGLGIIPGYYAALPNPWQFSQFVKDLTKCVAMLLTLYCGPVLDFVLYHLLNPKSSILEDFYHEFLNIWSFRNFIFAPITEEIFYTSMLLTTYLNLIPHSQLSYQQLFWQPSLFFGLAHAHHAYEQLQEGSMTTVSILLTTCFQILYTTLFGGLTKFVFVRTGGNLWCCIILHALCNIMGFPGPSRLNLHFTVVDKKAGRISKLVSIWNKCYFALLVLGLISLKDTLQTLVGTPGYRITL
Yeast UUG start = yeast start codon fidelity modulation | S. cerevisiae UUG-firefly luciferase reporter, luminescence/redox ratio | activity score, % at 18.7 µM | 350,000 tested, 0.13% active;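 active = replicate mean at a twofold rise or more, about +100% in these data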;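 also: firefly luciferase made from a UUG start codon reports start codon fidelity; reporter light over untreated wells divided by growth signal over untreated wells; some hits fall short of that in this replicate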
HIV Env fusion = inhibitors of HIV Env-mediated cell fusion; HeLa-JRFL Env/CEM21 cell fusion, luciferase; 360,000 tested, 1.1% active; AID 651610; inhibition, % at 12.3 µM;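 active = mean replicate inhibition score of at least 50 and every replicate individually at or above 50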;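 also: 0% = plate neutral controls and 100% = maraviroc near 300 nM; one replicate is shown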
MT1-MMP act inh = MT1-MMP (human) activation inhibition | GFP/RFP ratio change, % at 20 µM | AID 651647 | 360,000 tested, 0.061% active | HT1080 RFP-PRO-GFP cells, GFP/RFP ratio fluorescence, overnight; percent of plate control window, DMSO zero;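 active = GFP/RFP ratio change of at least 30% with cell ATP level not reduced by more than half and red fluorescence within 50% of control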; also: strong numbers were not always called active
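system = RFP-PRO-GFP reporter HT1080 cells | dosing = 20 µM single dose, 1% DMSO | timing = overnight cell settling, then overnight compound exposure, 37 °C, 5% CO2 | read-out basis = GFP/RFP fluorescence ratio | controls = DMSO and RFP-L50D-GFP cell wells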
PABP polyA inh = PABP-poly(A) binding inhibition. P11940. PABP-poly(A) RNA binding, fluorescence polarization. inhibition, % at 35 µM. 290,000 tested, 1% active. AID 2014;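 active = 50% or more with normal probe brightness, or confirmed in later tests; about a fifth of its hits are not listed in these tables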;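 also: calls also rest on retests at 20 µM and on dose response follow-up; controls were probe without protein and protein plus probe with vehicle; some compounds called inactive have numbers as strong as hits; many hits fall short of the cut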
Target sequence (P11940 whole entry, looked up): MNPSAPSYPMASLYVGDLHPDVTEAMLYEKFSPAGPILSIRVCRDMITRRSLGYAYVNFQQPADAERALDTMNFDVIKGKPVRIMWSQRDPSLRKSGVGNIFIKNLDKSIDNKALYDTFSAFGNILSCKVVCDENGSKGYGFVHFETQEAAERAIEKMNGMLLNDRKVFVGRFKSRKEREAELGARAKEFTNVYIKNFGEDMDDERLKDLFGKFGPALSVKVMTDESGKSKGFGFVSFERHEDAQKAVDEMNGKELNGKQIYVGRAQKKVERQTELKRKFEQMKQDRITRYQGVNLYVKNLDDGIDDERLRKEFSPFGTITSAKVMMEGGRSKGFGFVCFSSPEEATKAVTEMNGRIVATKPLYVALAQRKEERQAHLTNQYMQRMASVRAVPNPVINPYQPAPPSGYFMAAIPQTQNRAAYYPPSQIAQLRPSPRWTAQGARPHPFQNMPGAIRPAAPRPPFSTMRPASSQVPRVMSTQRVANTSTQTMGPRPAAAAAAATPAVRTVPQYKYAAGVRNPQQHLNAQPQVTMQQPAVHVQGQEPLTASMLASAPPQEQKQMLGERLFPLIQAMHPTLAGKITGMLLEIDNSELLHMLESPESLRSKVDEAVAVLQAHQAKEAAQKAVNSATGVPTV
CSC inhib = blocks cancer stem cells. cancer stem cell-like cells viability, luminescence. inhibition, % at 7.5 µM. 300,000 tested, 1.1% active. AID 2717;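 active = mean at 75% or more and at least half the replicates too; tested in HMLE shEcad cells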;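 also: 0% = median of negative and 100% = median of positive control wells; the first replicate is given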
eIF4H FP inh = inhibitors of RNA binding by human eIF4H | Q15056 | eIF4H fluorescence polarization binding assay | inhibition, % at 35 µM | 290,000 tested, 0.94% active | AID 2012;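 active = 50% or more with normal probe brightness, or confirmed in later tests; about a fifth of its hits are not listed in these tables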;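 also: calls also rest on retests at 20 µM and on dose response follow-up; 0% = protein and probe with vehicle and 100% = probe without protein; strong numbers were not always called active; many hits fall short of the cut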
MT1-MMP act inh RFP = further read-out of MT1-MMP act inh, marked with its call; RFP signal change, %; measured here: RFP expression control read;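 0 = vehicle wells; hits needed this value within 50% of zero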
Numbers without * were called inactive; i = inactive; · = no result given; & = joins results of further samples; [ ] = dose if it differs, or a comment. Some of the compounds tested. The share of hits here may be higher or lower than overall.

SMILES | Rce1 inhib | Yeast UUG start | HIV Env fusion | MT1-MMP act inh | MT1-MMP act inh RFP | PABP polyA inh | CSC inhib | eIF4H FP inh
CCOc1ccccc1NC(=O)Nc1cccc(NC(C)=O)c1 | i | 0 | 32 | 5 | 2 | -2 | -8 | -4
O=C(CSc1nnc2scc(-c3ccccc3)n12)Nc1nsc(-c2ccc(Cl)cc2)n1 | i | -5 | · | 7 | -10 | · | 17 | ·
COCCCNC(=O)c1ccc2nc([C@@H]3O[C@H](CO)[C@H](O)[C@H](O)[C@H]3O)[nH]c2c1 | · | -9 | -16 | -3 | 3 | · | · | ·
COc1cccc(N(C(=O)CNC(=O)c2ccco2)C(C(=O)NC2CCCCC2)c2ccncc2)c1 (configuration not stated) | i | -15 | 31 | -3 | 3 | -10 | 7 | -10
CCN(CC(=O)Nc1cccc(OC)c1)CC(=O)Nc1ccc(Br)c(C)c1 | i | 1 | 30 | 5 | 4 | -11 | 28 | -22
CS(=O)(=O)N(Cc1nc(-c2ccc(F)cc2)no1)c1ccccc1Cl | · | -10 | 9 | 1 | -9 | · | 12 | ·
CC(=O)Nc1ccc(SCc2c(C)noc2C)cc1 | i | -10 | -8 | 2 | 6 | -2 | 1 | -7
Cn1c(=O)n(C)c2cc(C(=O)O)ccc21 | i | -13 | · | 9 | 4 | 4 | -9 | -2
O=C(Nc1ccccc1N1CCCCC1)c1ccc(OC(F)F)cc1 | i | -3 | 1 | 1 | -2 | -7 | 32 | -6
CCC(Oc1ccccc1)C(=O)Nc1ccc(C)c(S(=O)(=O)N2CCOCC2)c1 (configuration not stated) | i | 2 | -18 | 1 | -2 | · | -9 | ·
COc1cccc(N2CC(=O)N(NC(=O)CSc3nc(C)cc(C)c3C#N)CC2=O)c1 | i | -7 | 12 | 14 | 8 | -3 | -6 | -17
COc1ccc(C2CCCN2C(=S)Nc2ccc(C)cc2C)cc1OC (configuration not stated) | i | -22 | 4 | 4 | -10 | -1 | -10 | 2
Cn1c2c(c(=O)n(C)c1=O)C(c1ccc(Br)cc1)Nc1ccccc1O2 (configuration not stated) | i | 3 | 7 | -4 | 4 | -8 | -18 | 1
O=C(NNC(=O)c1cccs1)c1cccnc1 | i | -5 | -3 | 0 | 4 | -10 | -1 | -9
C[C@@H]1CN([C@@H](C)CO)C(=O)c2cc(NS(C)(=O)=O)ccc2O[C@H]1CN(C)Cc1ccc(Oc2ccccc2)cc1 | · | 6&7 | -11[16.7 µM] | 1 | 3 | · | 17 | ·
Cc1ccc(C)c(NC(=O)CCn2cnnn2)c1 | i | · | 3 | -1 | 5 | 20 | 3 | -2
Cc1cc(C)cc(N(C(=O)CNC(=O)c2ccco2)C(C(=O)NC2CCCCC2)c2cccnc2)c1 (configuration not stated) | i | -17 | 6 | -2 | 5 | 2 | -8 | 1
CC(C)c1ccc(S(=O)(=O)N2CCN(C(=O)c3ccc(N4CCCC4)c([N+](=O)[O-])c3)CC2)cc1 | i | -16 | -9 | 0 | -4 | -10 | 13 | 50
COc1ccccc1-c1coc2c(CN3CCN(CCO)CC3)c(O)ccc2c1=O | i | -7 | · | -1 | 6 | · | -6 | ·
CC(C)C1N(C(=O)N2CCOCC2)CCN1S(=O)(=O)c1ccccc1 (configuration not stated) | i | 1 | 4 | -1 | 0 | -2 | -8 | -8
Cc1nn(Cc2ccccc2Cl)c2sc(C(=O)NCc3ccc4c(c3)OCO4)cc12 | i | -11 | · | 6 | 2 | -10 | -5 | -2
CCOC(=O)c1cc2c(C)[nH]c(C)c2cc(C(=O)OCC)c1=O | i | · | 6 | -10 | 6 | 22 | -6 | 27
COc1ccc(CCN=C2SCC(=O)N2Cc2ccccc2)cc1OC | i | -2 | 6 | 3 | -10 | -6 | 2 | -2
Cc1onc(-c2ccccc2)c1C(=O)NCc1ccccc1F | i | -15 | 11 | -4 | -3 | 4 | -31 | -2
O=C(Nc1ccc(Oc2ccsc2C(=O)O)cc1)c1ccccc1 | i | 1 | 11 | 0 | 0 | 9 | -10 | 4
CCOC(=O)c1c(NC(=O)CN2CCN(C)CC2)sc(C(=O)Nc2ccccc2)c1C | i | · | 9 | -5 | -8 | -10 | 79* | -9
Cc1cc(CNC(=O)c2cccc3c2C(=O)c2ccc(-c4ccc(F)cc4OCc4ccccc4)cc2S3(=O)=O)c(C(F)(F)F)o1 | · | 9 | -62 | 5 | 2 | · | · | ·
O=[N+]([O-])c1cnc2nc(-c3ccncc3)nn2c1O | i | · | -15 | 1 | 4 | 0 | 17 | 0
C=CCNC(=O)C1CCCN(S(=O)(=O)c2ccc(-n3cnnn3)cc2)C1 (configuration not stated) | i | -23 | 12 | -1 | 0 | 2 | 0 | -8
COc1ccc(CCN(C)C(=O)c2cc(S(=O)(=O)N3CCCCC3)ccc2Cl)cc1OC | i | · | 4 | 6 | -13 | · | -2 | ·
CC[C@]12c3[nH]c4cc(-c5ccco5)ccc4c3CCN1C(=O)[C@@H](CC(=O)NC(C)(C)C)C[C@@H]2C(=O)N1CCN(C(=O)c2ccco2)CC1 | · | -3 | -50 | -3 | 3 | · | · | ·
CCOC(=O)c1cnc2c(c(C)nn2-c2ccc(C)cc2)c1Cl | i | -13 | -12 | -2 | -1 | 3 | · | -7
C/C=C/c1ccc(OCC(=O)OCc2csc(Nc3ccc(C)cc3)n2)c(OC)c1 | i | · | -28 | -3 | 1 | -7 | -11 | -5
C#CCn1c(=NC(=O)CN2C(=O)CCC2=O)sc2cc(S(N)(=O)=O)ccc21 | i | -9 | -2 | 2 | 7 | -7 | -13 | 10
CC(C)c1ccc2[nH]c(O)c(N=NC(=O)c3cccc(S(=O)(=O)Nc4ccc(Cl)cc4)c3)c2c1 | i | -52 | 0 | 0 | -1 | 3 | · | -14
CCCCCC(=O)Nc1nnn(CCC)n1 | i | -19 | 33 | 0 | 0 | 2 | -1 | -4
CCCCC(=O)N(C)c1c(C)nc2ccc(C(=O)NCc3ccccc3OC)cn12 | · | -9 | -20 | -2 | -1 | · | · | ·
CC(C)Oc1ccc(C(=O)Nc2nc3ccccc3[nH]2)cc1 | · | -78 | 57* | 0 | -13 | -2 | 42 | -12
CCC(NC(=O)c1ccccc1NC(=O)C(C)(C)C)C(=O)N1CCCC1 (configuration not stated) | i | · | -10 | 0 | 2 | 3 | -7 | -3
COc1ccc(-c2cc(C(=O)Nc3cc(C)n(Cc4ccc(Cl)cc4)n3)no2)cc1OC | i | -16 | · | 7 | -11 | 0 | 1 | -4
Cc1cccc(C)c1NC(=O)COC(=O)c1ccccc1[N+](=O)[O-] | i | -14 | 3 | 3 | 3 | -10 | -2 | 0
Cc1ccc(CN2CCN(Cc3ccccn3)CC2CCO)cc1 (configuration not stated) | i | · | 26 | 0 | 3 | 1 | 1 | 16
CCCN1CCC(=O)N([C@H](CSc2ccc(OC)cc2)Cc2ccccc2)CC1 | i | 1 | -18 | -3 | -1 | -7 | 8 | 0
COc1cccc(C(=O)NCCS(=O)(=O)N2CCC(C)CC2)c1 | i | -10 | · | 0 | -1 | · | -6 | ·
COc1ccc(C(=O)N2CCC(C(=O)Nc3ccccc3OC)CC2)cc1 | i | -12 | -282 | 4 | 3 | 3 | -7 | 2
CCOC(=O)c1[nH]c(C)c(C(=O)NCC2CCCO2)c1C (configuration not stated) | i | -6 | · | 5 | 1 | 6 | 0 | -5
Cc1ccc(NP(=O)(c2ccc(N(C)C)cc2NC(=O)c2cccs2)N2CCOCC2)cc1Cl (configuration not stated) | i | -27 | -24 | -19 | -9 | -16 | -6 | -17
CC(C)N(Cc1ccccc1)C(=O)CCS(=O)(=O)c1ccc2c(c1)oc(=O)n2C | i | -12 | 13 | -3 | 2 | 2 | -7 | -10

As entered above:
Cc1cccc(C)c1NC(=O)COC(=O)c1ccccc1[N+](=O)[O-] – eIF4H FP inh: 0
COc1cccc(C(=O)NCCS(=O)(=O)N2CCC(C)CC2)c1 – Yeast UUG start: -10

More results follow.
SMILES | Rce1 inhib | Yeast UUG start | HIV Env fusion | MT1-MMP act inh | MT1-MMP act inh RFP | PABP polyA inh | CSC inhib | eIF4H FP inh
CCCn1c(=O)c2ccccc2n2c(SCCOc3ccc(C)cc3)nnc12 | i | -8 | · | 3 | 0 | 7 | -7 | -1
Cc1ccc(OCC(=O)N2CCc3ccccc32)cc1 | i | -18 | -28 | 1 | 4 | 6 | 19 | -4
COc1cc(/C=C2/SC(=NCc3ccccc3)N(Cc3ccccc3)C2=O)ccc1O | i | -18 | · | -37 | -6 | -10 | 0 | -3
CCC(CC)n1[nH]c(=O)c2c(C)cc(C)nc21 | · | -11 | 26 | 9 | 6 | -6 | 2 | 3
CCOc1ccc(-c2c(C(=O)N/N=C(\C)c3cccs3)nnn2-c2nonc2N)cc1 | i | -22 | -3 | -4 | 1 | · | 4 | ·
O=C1c2cccc3cccc(c23)C(=O)N1c1nncs1 | i | -24 | · | 3 | 5 | 5 | -1 | 1
CCc1ccc([C@@H]2CC=C(C(=O)O)[C@H](c3ccccc3)N2S(=O)(=O)c2ccc(C)cc2)cc1 | · | -6 | -1 | -1 | 3 | · | -1 | ·
COc1ccc(C(=O)C2CCCN(C(=O)c3cnsn3)C2)c(C)c1 (configuration not stated) | i | · | -4 | 0 | -8 | 4 | · | -2
CCOC(=O)C1=C(N)N2C(=O)C(C)SC2=C(C(=O)OC)C1c1cccc(OC)c1 (configuration not stated) | i | -10 | -5 | 2 | 1 | -3 | -7 | -3
CCc1c(C)nc(SCC(=O)Nc2ccc3c(c2)OCCO3)[nH]c1=O | i | · | 17 | 2 | 1 | 4 | 1 | -4
Cc1ccc(NC(=O)C2=CC(c3cccs3)=NS(=O)(=O)N2C)cc1 | i | -13 | 35 | -1 | -11 | -12 | · | -17

2 successive records out of the list so far:
SMILES | Rce1 inhib | Yeast UUG start | HIV Env fusion | MT1-MMP act inh | MT1-MMP act inh RFP | PABP polyA inh | CSC inhib | eIF4H FP inh
CCc1c(C)nc(SCC(=O)Nc2ccc3c(c2)OCCO3)[nH]c1=O | i | · | 17 | 2 | 1 | 4 | 1 | -4
Cc1ccc(NC(=O)C2=CC(c3cccs3)=NS(=O)(=O)N2C)cc1 | i | -13 | 35 | -1 | -11 | -12 | · | -17

Some of these compounds in order of molecular weight, smallest number first.
SMILES | Rce1 inhib | Yeast UUG start | HIV Env fusion | MT1-MMP act inh | MT1-MMP act inh RFP | PABP polyA inh | CSC inhib | eIF4H FP inh
Cc1ccc(OCC(=O)N2CCc3ccccc32)cc1 | i | -18 | -28 | 1 | 4 | 6 | 19 | -4
CCOC(=O)C1=C(N)N2C(=O)C(C)SC2=C(C(=O)OC)C1c1cccc(OC)c1 (configuration not stated) | i | -10 | -5 | 2 | 1 | -3 | -7 | -3
COc1cc(/C=C2/SC(=NCc3ccccc3)N(Cc3ccccc3)C2=O)ccc1O | i | -18 | · | -37 | -6 | -10 | 0 | -3
CCOc1ccc(-c2c(C(=O)N/N=C(\C)c3cccs3)nnn2-c2nonc2N)cc1 | i | -22 | -3 | -4 | 1 | · | 4 | ·
